AID504770: growth inhibitors of E. coli YBA685 in a screen for V. cholerae RctB (chromosome II replication) inhibitors; E. coli YBA685 rctB-dependent plasmid, OD600 growth, 3 h; active compounds read low; z-score (concentration not given with the values); 130,000 tested, 0.27% active;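 active means z-score under -2 on both plates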;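 further: wells of about 30 µL received 100 nL stock; score is relative to mean and SD of the test wells; the first replicate is given; strong numbers were not always called active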
Ba CapD inh: blocks the Bacillus anthracis CapD enzyme | purified CapD enzyme, fluorescence intensity read-out; active compounds read low; some hits fall short of the stated cut | z-score (test concentration not listed) | 140,000 tested, 0.23% active | AID 492967;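 active means z-score under -4 in either of two replicates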;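 further: stock transfer was 100 nL into about 40 µL; score is relative to mean and spread of the plate; one replicate is shown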
Active calls of the source: *; x = no result given; & = joins results of further samples.

mol,AID504770,Ba CapD inh
COc1cc(/C=C2\C(=O)NC(=O)N(c3cc(C)cc(C)c3)C2=O)cc(OC)c1O,x,-1.02
Cn1c(SCc2c(Cl)cccc2Cl)nc(C(F)(F)F)cc1=O,x,-0.4
O=C(c1cccs1)N(Cc1ccco1)c1ccc(O)cc1,0.95,x
CC(Oc1ccccc1F)C(=O)N(C)Cc1ccccc1 (configuration not stated),1.45,-0.17
Cc1ccc(/C=N/NC(=O)CCn2nc(C)cc2C)c(C)c1,0.5,x
COC(=O)c1sc(=Nc2ccccc2)n(-c2ccccc2)c1C,0.05,-1.04
O=c1/c(=C/c2ccc(-c3cc(C(F)(F)F)cc(C(F)(F)F)c3)o2)sc2nc3ccccc3n12,x,-0.035
O=C(Nc1ccc2cn[nH]c2c1)c1ccc(C(F)(F)F)cc1,0.35,-0.58

Continuation.
mol,AID504770,Ba CapD inh
S=c1[nH]nc(-c2ccncc2)n1CCc1ccccc1,-0.55&0.55,-0.355&0.18
CS(=O)(=O)c1ccc2c(c1)[nH]c(=O)c(=O)n2Cc1ccccc1,x,8.66
CO/N=C/c1ccc(OC)c(OC)c1,-0.85,x
NCCNC(=O)c1cc(OCC(F)(F)F)ccc1OCC(F)(F)F,x,-0.03
N#C/C(=C\c1ccccc1)C(=O)C1CC1,-1.2,0.385
N#CCc1nn(-c2ccccc2)c(-n2cccc2)c1C#N,x,0.48
Cc1cccc(Cl)c1S(=O)(=O)N1CCN(Cc2ccccc2OCc2ccccc2)CC1,x,0.165
O=C1C2C3C=CC(CC3)C2C(=O)N1c1nccs1 (configuration not stated),x,-0.915

(further entries)
mol,AID504770,Ba CapD inh
CCOC(=O)c1nc(N2CCC3(CC2)OCCO3)c2ccccc2n1,-0.85,-0.975
COC(=O)CSc1nnc(-c2ccc(OC)cc2)o1,0.65,-0.045
Cc1noc(C)c1CSc1ccccc1C(=O)OC(C)C(=O)N1CCOCC1 (configuration not stated),0.45,x
Cc1ccc(C(=O)N2CCCCC2)cc1,-1.1,0.56
COc1cccc(C2NC(=O)NC(C)=C2C(=O)Nc2cccc(Cl)c2)c1OC (configuration not stated),0.85,-0.095
CCN(c1ccccc1)S(=O)(=O)c1ccc(N2CCc3ccccc3C2)nc1,-0.25,x
O=C(Cn1ccc2ccccc2c1=O)NCC(=O)N1CCCCC1,-0.4,-0.055
O=C(NCCC(=O)N1CCN(c2ccccn2)CC1)Nc1ccccc1,-0.3,x

Continuation:
mol,AID504770,Ba CapD inh
COc1cccc(NC(=O)CSc2nc3c(sc(=S)n3-c3cccc(OC)c3)c3nc4ccccc4n23)c1,x,0.255
N#CC1=C(SCc2ccccc2)SC(c2ccc(C(=O)O)cc2)NC1=O (configuration not stated),0.2,-2.26
COc1cc(OC)cc(-c2cc3nc(C)c(CCC(=O)NC(C)c4cccs4)c(C)n3n2)c1 (configuration not stated),-0.65,17.6
Cc1oc(-c2cc(Cl)ccc2Cl)cc1C(=O)O,0.25,x
COC(=O)c1ccc(C(=O)OC)c(N2C(=O)CSCC2=O)c1,-0.05,0.345
Cn1c(CSc2cc(C(F)(F)F)nc3ccccc23)nnc1SCC(=O)c1ccccc1,-0.9,-0.595
O=C(NCCc1nc2ccccc2n1Cc1ccccc1)c1ccccc1,-0.1,-0.42
COC(=O)CN1C(=O)COc2cc(S(=O)(=O)N3CCCCC3)ccc21,-0.35,-0.25

(next part)
mol,AID504770,Ba CapD inh
CCCCn1nc(C)c(C(=O)Nc2nc3ccccc3[nH]2)c1Cl,-1.9,x
Cc1nc(S(=O)(=O)NC2CCS(=O)(=O)C2)cn1C (configuration not stated),1.75,-0.645
O=C(O)c1cc2c3c(c1)C1C=CCC1C(c1ccc(F)cc1)N3CC1CC=CC21 (configuration not stated),x,1.69
COc1cc(/C=N/n2c(C)nnc2C)cc(OC)c1O,-0.35,x
CC1=NN(C(=O)c2ccccc2)C(O)(C(F)(F)F)C1 (configuration not stated),-0.6,1.36
Cc1c(NS(=O)(=O)c2ccc3c(c2)C(=O)c2ccccc2C3=O)c(=O)n(-c2ccccc2)n1C,x,-0.465
COc1ccc(Br)cc1/C=C1/C(=O)Nc2ccccc21,x,-1.09
CCc1ccc(N2C(=O)N(CC(N)=O)C3CS(=O)(=O)CC32)cc1 (configuration not stated),0.7,-0.04

Whole records from above. Order of screens: AID504770 | Ba CapD inh
CC1=NN(C(=O)c2ccccc2)C(O)(C(F)(F)F)C1 (configuration not stated) in the list: -0.6 | 1.36
O=C(O)c1cc2c3c(c1)C1C=CCC1C(c1ccc(F)cc1)N3CC1CC=CC21 (configuration not stated) in the list: x | 1.69
COc1ccc(Br)cc1/C=C1/C(=O)Nc2ccccc21 in the list: x | -1.09

Other compounds follow.
mol,AID504770,Ba CapD inh
CCC(C)NC(=O)Cn1c(=O)n(CCc2ccccc2)c(=O)c2c3c(sc21)CCCC3 (configuration not stated),-0.8,-0.115
CCN(CC)c1ncc(C(=S)N=P(N(C)C)(N(C)C)N(C)C)s1,-0.45,x
CC1CCN(c2nc(Cl)nc(NCCN3CCOCC3)n2)CC1,x,0.455
Cn1cc(NC(=O)N(Cc2ccco2)CC2CCCO2)c2ccccc2c1=O (configuration not stated),0.1,32.9
CCOc1ccc(C(=O)Nc2ccc3oc(-c4cccnc4)nc3c2)cc1Br,x,0.775
CCOC(=O)c1c(C)cc(C)n2c1nc1ccccc12,0.7,5.67
CNc1nc(-c2ccc3c(c2)CCN3S(=O)(=O)c2ccccc2)cs1,-0.4,x
O=C(Cc1ccc(S(=O)(=O)N2CCCCC2)s1)OCc1csc(Nc2ccccc2)n1,0,x

(next part)
mol,AID504770,Ba CapD inh
O=C(O)CN(c1cccc(C(F)(F)F)c1)S(=O)(=O)c1ccccc1,-0.6,x
O=C(c1ccc(F)c(Cl)c1)c1ccc(F)c(Cl)c1,x,0.445
O=[N+]([O-])c1ccc(-c2csnn2)cc1,x,0.53
CNC(=O)c1sc(NCC(C)C)nc1C,-1.3,x
Cc1ccc2c(c1)NC(=O)CC(c1ccccc1)=N2,x,-0.59
Fc1cccc(CSc2c[nH]c3ccccc23)c1,-0.25,-0.195
Cn1cnnc1SCCOc1ccc(Cl)cc1,-0.35,x
COCC(C)n1c(-c2ccc3c(c2)NC(=O)CO3)csc1=Nc1ccc(OC(F)F)cc1 (configuration not stated),0.6,x

Some of the entries so far, with two lines to a compound:
The line under a structure holds: AID504770	Ba CapD inh
- O=C(O)CN(c1cccc(C(F)(F)F)c1)S(=O)(=O)c1ccccc1
    -0.6	x
- O=C(c1ccc(F)c(Cl)c1)c1ccc(F)c(Cl)c1
    x	0.445

(list continues)
mol,AID504770,Ba CapD inh
O=C1CCCN1c1ccc(C(F)(F)F)cc1,2.05,-0.44
NC(=NC(=O)c1ccccc1)N1N=CCC1c1ccccc1 (configuration not stated),-1.1,-0.47
NC(=O)c1cc2ccccc2o/c1=N\NC(=O)c1ccc(F)cc1,0.2,0.58
COc1cc(-c2nnc(SCc3nc4scc(-c5ccccc5)c4c(=O)[nH]3)o2)cc(OC)c1OC,0.45,x
O=C(NCCc1ccsc1)c1ccc2c(=O)n3c(nc2c1)CCCCC3,0.7,-0.185
COc1cc(-c2c(C#N)c(N)nc3sc(C#N)c(N)c23)cc(OC)c1OC,x,-0.445
O=C(CN1C(=O)c2ccccc2S1(=O)=O)c1ccc(O)c(O)c1,1.1,-1.17
CC(=O)Nc1ccc(N=Cc2ccccc2)cc1,0.1,x

(continued)
mol,AID504770,Ba CapD inh
CC(C)(C)NC(=O)c1cccc(C(=O)NC(C)(C)C)c1,1.4,x
Cc1ccc(C(=O)N/C(=C\c2cccs2)C(=O)NCCCn2ccnc2)cc1C,x,-0.77
Cc1[nH]c2ccccc2c1CCNC1=CC(=O)CC(C)(C)C1,0.1,0.155
CCC1Sc2ccccc2N(CC(=O)N(C(C)C)C(C)C)C1=O (configuration not stated),0.2,x
Fc1cc(-c2nccc(-c3ccco3)n2)ccc1I,x,-0.295
Cc1nc(-c2ccccc2)sc1-c1nnc(C2CC2)o1,0.7,44
CCOc1ccc(NC(=O)COC(=O)C(C)C)cc1,-0.3,-0.425
O=C(CCCN=C1NS(=O)(=O)c2ccccc21)Nc1ccc2c(c1)CCC2,0.3,x

Additional results follow:
mol,AID504770,Ba CapD inh
CC(C)(CC(=O)O)CC(=O)Nc1ccc(Oc2ccc(C(C)(C)C)cc2)nc1,1.05,0.695
Cn1nc(-c2ccccc2)c(CSc2c(Cl)cccc2Cl)c1Cl,x,-0.18
Cc1noc(C)c1COc1cccc(C#N)c1,-0.2,x
C=CCN(CC=C)c1nn[nH]n1,-0.5,-0.42
COc1cc(C2C(C(=O)OCC3CCCO3)=C(C)NC3=C2C(=O)CC(C)(C)C3)ccc1OCc1ccccc1 (configuration not stated),x,1.08
CC(C)(Cn1ccc(O)c(Cc2ccccc2)c1=O)SCc1ccc(F)cc1,x,-0.225
CCc1ccc2oc(-c3ccc(NC(=O)CC(C)C)cc3)nc2c1,0.6,78.1
O=S(=O)(Cc1ccccc1)c1nnnn1-c1ccccc1,0.5,-0.75

(more compounds)
mol,AID504770,Ba CapD inh
COc1ccc(-n2c3nc(=O)[nH]c(=O)c-3cc3ccccc32)cc1,x,0.32
O=C(O)c1nn(CC(=O)N2N=C3/C(=C/c4ccco4)CCCC3C2c2ccco2)c(=O)c2ccccc12 (configuration not stated),-0.45,x
CC(C)C(=O)N(c1ccc2oc(=O)sc2c1)S(=O)(=O)c1cccs1,-0.55,-2.96
Cc1cc(/C=N/NC(=O)c2ccc([N+](=O)[O-])cc2Cl)c(C)n1-c1cccc(C(F)(F)F)c1,x,0.165
CCN(Cc1nc2cc(OC)c(OC)cc2c(=O)[nH]1)Cc1cc(=O)oc2c(C)c(C)ccc12,0.05,x
COC(F)(C(=O)NCCc1cccn1C)C(F)(F)F (configuration not stated),0,x
CCOC(=O)C(c1ccc(Cl)cc1)N1CCNCC1 (configuration not stated),-0.05,x
COc1cc(NC(=O)c2ccc(Cl)cc2)c(C(=O)O)cc1OC,x,-0.65

The listing continues.
mol,AID504770,Ba CapD inh
CCc1ccc(NC(=O)CNS(=O)(=O)c2ccc3nc(C)sc3c2)cc1,-0.6,12.7
Clc1ccc(C=Nc2ccc(-c3csnn3)cc2)cc1,1.55,-0.475
Cc1cc(C(=O)CSc2nncs2)c(C)n1-c1ccc(F)cc1,0.2,x
COc1cc(OC)nc(C(c2ccccc2)c2ccccc2)n1,x,-0.315
COc1ccccc1CNC(=O)CSc1nc2[nH]ncc2c(=O)n1-c1ccc(Cl)cc1Cl,x,-0.145
N#Cc1cc2c(nc1SCC(=O)Nc1ccccc1F)CCCCC2,x,2.37
NCCSc1sc(=S)sc1SCCN,-0.85,-0.58
CCc1c(C(=O)O)c2ccccc2[nH]c1=O,0.2,-1.38

New compounds follow.
mol,AID504770,Ba CapD inh
Cc1csc(SCC(=O)N(C)Cc2ccc(F)cc2)n1,0.45,x
CC1=C(c2ccc(C)c(C)c2)S(=O)(=O)NC1=NCC(=O)NCc1ccc(C)o1,1,-1.1
COc1ccc(-c2nnn(Cc3nc(N)nc(N4CCOCC4)n3)n2)cc1OC,x,-1.17
CCOC(=O)N1CCC(NC(=O)c2cnc3n(c2=O)CCS3)CC1,1,x
COCc1cc(SCc2ccc(Cl)cc2Cl)nc(-c2ccccc2)n1,x,-0.17
CCc1ccc(NC(=O)N(Cc2cccc(OC)c2)C2CCN(CC)CC2)cc1,-0.15,2.46
O=Nc1[nH]c2ccc(Br)cc2c1O,-0.95,-0.26
COC(=O)c1ccccc1NC(=O)CSc1nc2c(c(=O)n(C)c(=O)n2C)n1C,x,-0.125

(more compounds)
mol,AID504770,Ba CapD inh
O=[N+]([O-])c1cccnc1N/N=C/c1ccc(O)cc1,x,-1.09
COc1ccc2cc(CNC3CCCCC3)c(=O)[nH]c2c1,-1.1,x
O=c1c(=O)n2c(nn1Cc1ccc(F)cc1)sc1ccccc12,2.85,49.1
CCn1c(-c2nonc2N)nc2ccccc21,0.6,0.02
O=C(CSc1nnc(-c2c[nH]c3ccccc23)o1)NCC1CN(Cc2ccccc2)CCO1 (configuration not stated),-0.3,x
CCOC(=O)N1CCC(NC2C3CC4CC(C3)CC2C4)CC1 (configuration not stated),-0.85,0.295
COc1ccccc1N1CCN(CC(=O)Nc2ccc3[nH]c(=O)[nH]c3c2)CC1,-0.25,x
CC1(C)CC(=O)C2=C(C1)Nc1ccc3ccccc3c1C2c1ccccc1 (configuration not stated),x,20.4

New compounds follow
mol,AID504770,Ba CapD inh
COc1ccc(C(=O)[C@@H]2[C@@H](c3ccccc3F)C(C#N)(C#N)[C@H]3C=Cc4ccccc4N23)cc1,-0.1,0.335
Cc1ccc(NC(=O)COC(=O)C2(CC(=O)NC(C)C)CCCC2)cc1C,-2.45,x
CCn1c(=O)c2cc(C(=O)NC3CCCC3)sc2c2ccccc21,2.45,-0.1
O=C(Oc1cc(S(=O)(=O)c2ccccc2)ccc1[N+](=O)[O-])c1ccc(Cl)c(Cl)c1,x,-0.425
CC(=O)Nc1cc(C2CC2)nn1-c1ccccc1,0.3,-0.12
CCOC(=O)c1nocc1C(=O)c1ccc2noc(-c3ccc(Cl)cc3)c2c1,x,-0.72
CS(=O)(=O)NCC(c1cccs1)S(=O)(=O)c1ccccc1 (configuration not stated),-0.3,x
O=C(OCc1ccc2c(c1)OCO2)c1cccc(S(=O)(=O)N2CCCC2)c1,0,x
O=C(CNS(=O)(=O)c1ccc(Br)s1)NCc1ccccc1,-1.15,0.4

Source: PubChem BioAssay
